# Compound activity deposited in PubChem BioAssay by Center for Chemical Genomics, University of Michigan.
# CDC25B-CDK2 inh = human CDC25B-CDK2/CyclinA binding inhibition | HTRF CDC25B-CDK2/CyclinA binding, anti-His/anti-Flag; stronger effect = higher value | z-score (no concentration beside the values) | 0.72% of 94,000 active;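 further: score is relative to mean and SD of negative controls; strong numbers were not always called active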
# HIV TAR-Tat = HIV-1 TAR-Tat binding disruption | AID 1259389 | z-score (test concentration not listed) | HIV-1 TAR RNA, Tat peptide displacement FRET; stronger effect = higher value | 0.6% of 100,000 active;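 further: score is relative to mean and SD of negative controls; some compounds called inactive have numbers as strong as hits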
# * = called active by the depositor; . = no result given.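 How the source made its calls: active means z-score from 3 up in half or more of its runs; inactive means the rest.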
mol | CDC25B-CDK2 inh | HIV TAR-Tat
CN(C)CCCN1C(=O)C2CC3=C(CC2C1=O)C(C)(C)CCC3 (centres undefined) | -1.6 | .
Cc1c(C(=O)O)sc2nc(-c3ccc(Cl)cc3)nn12 | -1.2 | .
CCN1C(=O)C2(/C(=C(/O)c3ccc(OC)c(C)c3)C(=O)C(=O)N2CCCOC)c2ccccc21 (centres undefined) | 0.03 | 1.5
Cc1ccc(S(=O)(=O)c2cc3ccccc3oc2=O)cc1C | -5.6 | .
CCOCCCNc1sc(S(=O)(=O)CC)nc1S(=O)(=O)c1ccc(Cl)cc1 | -1.4 | -0.73
O=C(CSc1c2c(nc3ccccc13)CCC2)N1CCN(c2ccccc2F)CC1 | -3.1 | .
Cc1ccc2oc3c(c(=O)c2c1)C(c1ccc(Cl)cc1)N(CCCN(C)C)C3=O (centres undefined) | 0.04 | -1.5
O=C(Nc1ccc(Cl)cc1)C1CC=CCC1C(=O)OCC1CCCO1 (centres undefined) | -1.3 | .
CCOC(=O)C(=O)Nc1nnc2n1CCCS2 | . | 1.9
Cc1nn(-c2nc3ccccc3s2)c2c1C(c1cccc3ccccc13)CC(=O)N2 (centres undefined) | -0.5 | 0.19
COc1ccc2cc(CCC(C)=O)ccc2c1 | . | -1.4
C=CCn1c(=O)c(C(=O)NCCNCC)c(O)c2ccccc21 | . | 1.2

# Other results follow.
mol | CDC25B-CDK2 inh | HIV TAR-Tat
COc1cc(OC)cc(-n2nnc(-c3nc(-c4ccncc4)no3)c2N)c1 | . | -1.3
O=C1c2ccccc2C(Nc2ccc(Br)cc2)N1c1ccc(Cl)cn1 (centres undefined) | 0.72 | 1
O=C(CCC(=O)N1CCN(c2nc3cccnc3s2)CC1)N1CCC(N2CCCCC2)CC1 | . | -1.4
O=C1c2[nH]nc(-c3ccccc3O)c2C(c2ccc(Br)cc2)N1CCCO (centres undefined) | -0.85 | 2.7
Cc1ccccc1Nc1c(-c2ccccn2)nc2cnccn12 | -0.2 | -1.2
Cc1ccc(CNC2CCCCC2)s1 | -1.4 | -0.21
COc1cc(-c2ccc(Cl)cc2)[nH]n1 | -0.59 | 0.55
COC(CNc1ccc([N+](=O)[O-])c(NCC(OC)OC)c1C#N)OC | 0.49 | .
CCSc1[nH]c2ccccc2c(=O)c1C(=O)OC | . | -1.8
O=C(CCn1c(=O)c2sccc2n(Cc2cc(=O)n3ccccc3n2)c1=O)NCc1ccco1 | 1.5 | .
Cc1ccc(C2CC(c3ccc(Br)cc3)n3ncnc3N2)cc1C (centres undefined) | . | 2
COc1ccc(-c2cnc(SCc3ccc(F)cc3)n2C)cc1 | . | 1.2

# Remaining list, next part
mol | CDC25B-CDK2 inh | HIV TAR-Tat
O=C1CCc2cc(NS(=O)(=O)c3ccc(Br)cc3)ccc2N1 | . | 1.2
COC(=O)CN1c2ccccc2S(=O)(=O)c2ccccc21 | -0.78 | 0.06
C/C(=N\OC(=O)Nc1ccc(Cl)cc1)c1ccc[nH]1 | -2.2 | .
Cc1ccc(/C(O)=C2\C(=O)C(=O)N(c3nnc(C)s3)C2c2ccc(Br)cc2)cc1 (centres undefined) | 0.11 | .
COc1ccccc1N1C(=O)C2CC=CC(C)C2C1=O (centres undefined) | -4 | .
Cc1c(NS(=O)(=O)c2cccc3nsnc23)c(-n2cnnc2)nn1C | -2.5 | -0.65
O=C(Nc1c(C(=O)N2CCOCC2)cnn1-c1ccccc1)c1ccccc1 | 0.27 | .
CCSc1nc2c(c(=O)[nH]1)C(c1cccnc1)C1=C(CC(C)(C)CC1=O)N2 (centres undefined) | 0.81 | .
Cc1oc2ncnc(N3CCOCC3)c2c1C(=O)N(C)Cc1ccco1 | . | 2.3
CCC1(C)Cc2ccccc2-c2nc3n(C)nc(SC)n3c(=O)c21 (centres undefined) | 1.4 | -0.41
CCOc1cccc(-c2cc(C(=O)O)c3c(-c4ccc(Br)cc4)[nH]nc3n2)c1O | . | 3.4
CCCCCn1c(CN2CCN(C(=O)OCC)CC2)nc2c1c(=O)n(C)c(=O)n2C | -1.1 | -0.19

# Next section:
mol | CDC25B-CDK2 inh | HIV TAR-Tat
C=CCSc1nc2c(c(=O)[nH]1)C(c1ccccc1)C(C(=O)OC(C)C)=C(C)N2 (centres undefined) | -1.3 | 0.34
CN(C(=O)c1cc2c(s1)-c1ccccc1OC2)C1CCCCC1 | 0.57 | 2.3
Cn1c(=O)c(=O)n(C)c2cc(N3CCCCC3)c(NS(=O)(=O)c3ccc4c(c3)CCCC4)cc21 | . | 2.2
COc1ccc(OC)c(Nc2nc(-c3cccc(OC)c3OC)no2)c1 | . | -1.1
CCC(C)(C)NS(=O)(=O)c1cc2c(cc1C)NC(=O)CO2 | . | 1.4
CCOC(=O)c1c(C)n(-c2cccc(Br)c2)c2ccc(O)cc12 | 4.9 | -0.29
C/C=C(\C)C(=O)NC(=S)NNC(=O)c1c(-c2ccccc2)noc1C | -1.2 | .
CCCN(CCC)C(=O)C1CCCN(S(=O)(=O)c2ccc3c(c2)oc(=O)n3C)C1 (centres undefined) | -0.32 | -0.99
c1ccc2c(Nc3ccc4c(c3)OCCO4)c3c(nc2c1)CCCC3 | -1.9 | .
CC(C)CCNC(=O)c1ccc(N2CCSc3ccccc32)s1 | . | 1.3
Cc1ccc(-c2nnc(SCc3cc(=O)c4cc(F)ccc4[nH]3)n2C)cc1 | . | 0.94
Cc1nc2sc(C(c3ccc(F)cc3)N3CCN(c4cccc(Cl)c4)CC3)c(O)n2n1 (centres undefined) | -1.8 | .

# Next section
SMILES	CDC25B-CDK2 inh	HIV TAR-Tat
Cc1ccc(NC(=S)C(C#N)C(N)=O)cc1Cl (centres undefined)	-1.1	.
CCOC(=O)c1sc2nc(C)nc(Oc3ccc(OC)cc3)c2c1C	.	0.42
CC1=NN(c2ccc(C)cc2)C(=O)C1=C1SCCCS1	-2.6	.
O=C1/C(=C\c2ccc(O)c(O)c2)SC(=S)N1c1cccc2ccccc12	0.79	.
CCNc1nc(NCC)nc(OCCNS(=O)(=O)c2ccccc2)n1	-0.18	0.67
O=C(Nc1ccc(Oc2ccc(OC(F)(F)F)cc2)cc1)c1ccco1	0.8	.
COc1ccc(C2C(C(=O)OC(C)C)=C(C)NC3=C2C(=O)CC(c2ccccc2)C3)c(OC)c1 (centres undefined)	-1.6	0.03
CCn1cc(C2=NOC(C(=O)O)C2)c(C)n1 (centres undefined)	0.51	1.3
CCc1ccc2oc(C(=O)N(Cc3ccc(Cl)cc3)C3CCS(=O)(=O)C3)cc(=O)c2c1 (centres undefined)	-1.3	1.5
N#Cc1cc2c(nc1SCC(=O)NC1CCCC1)CCC2	-2	1.1
Cc1noc(C)c1S(=O)(=O)N1CCSCC1	-1.1	.
COc1ccc(-c2nn3c(Cn4cnc5ccccc54)nnc3s2)cc1	-2.1	1.7
Cc1ccc(S(=O)(=O)Nc2ccc3c(c2)N(S(=O)(=O)c2ccccc2)CCC3)s1	.	0.96
Cc1nc(NCCc2ccccc2)c2c3c(sc2n1)CCCC3	-1.9	.
O=C(NCCC1CC1(Cl)Cl)Nc1ccc(Cl)cc1Cl (centres undefined)	-0.07	.
CN1CCc2nc(NC(=O)c3ccc4c(c3)OCCO4)sc2C1	.	0.94
C=C(C)Cn1c(SCC(N)=O)nc2sc3c(c2c1=O)CCCC3	-2.2	.
O=C(Oc1ccccc1NC1=NS(=O)(=O)c2ccccc21)c1ccccc1Cl	-2	.
CC(=O)Oc1ccc(N2C(=O)C3C4C=CC(O4)C3C2=O)cc1 (centres undefined)	-1	-0.56
CC12CN3CC(C)(CN(C1)C3c1ccc(Br)cc1)C2 (centres undefined)	1.9	2.2
CN(Cc1nc2ccccc2n1C)C(=O)c1cccs1	-0.32	1.6
Cc1nc2ccn(Cc3ccco3)c(=O)c2cc1C(=O)N1CCN(c2ncccn2)CC1	.	1.2
CNC(=O)C1CCC(Cn2c(=O)c3sccc3n(CC(=O)NC3CCCC3)c2=O)CC1 (centres undefined)	.	-0.08
CCOC(=O)C1=C(C)Nc2nc(SC)nn2C1c1ccccc1F (centres undefined)	0.57	0.52
Cc1cc(C)c2c(n1)nn1c(C)c(CCC(=O)NC3CCCC3)c(C)nc21	-1.8	2.5
CSc1[nH]n2c(=O)cc(C)nc2c1-c1nc(-c2ccc3c(c2)OCO3)no1	0.45	1.1
O=c1[nH]c2cc(Cl)ccc2c(-c2ccccc2)c1Sc1nnnn1-c1ccccc1	-2.5	-1.2
O=C(CCS(=O)(=O)c1cc(Br)cc2c1N(C(=O)C1CC1)CC2)NCc1cccnc1	-0.01	1.4
Cc1ccc(Cn2nc3n(c2=O)-c2cc(Cl)ccc2OC3)cc1	-1.3	1.2
O=C1Nc2ccccc2C(=O)C1(O)O	-2.2	.

# Following part:
SMILES	CDC25B-CDK2 inh	HIV TAR-Tat
CCOc1cc(C2C(C(=O)OC)=C(C)NC3=C2C(=O)c2ccccc23)c(Cl)cc1OC (centres undefined)	0.65	0.81
CCOc1ccc(-c2cc(OC(=O)c3ccccc3F)c3c(C)oc(C)c3c(=O)c2)cc1	-0.68	-0.03
C#CCn1c(COc2ccccc2C)nc2ccccc21	-0.13	0.77
COc1ccc(S(=O)(=O)c2cnc3cc(OC)c(OC)cc3c2NCc2ccc(F)cc2)cc1	0.19	0.87
CSc1cccc(NC(=O)c2nn(C)c3c2COc2ccccc2-3)c1	2	2.3
Cc1cccc(Nc2ncnc3onc(-c4cc(F)cc(F)c4)c23)c1	.	1.1
CC(=O)OCCNc1cc(N2CCCC2)c2noc3c2c1C(=O)c1ccccc1-3	-0.69	-5
OC(CNCc1ccc(C(F)(F)F)cc1)Cn1ccc(C(F)(F)F)n1 (centres undefined)	-1.1	.
O=C(CCCc1nnc2c(=O)n(-c3cccc(F)c3)ccn12)NC1CC1	.	-0.98
Nc1oncc1-c1ccc(Br)cc1	-0.72	1.6
CC(=O)N1CCc2cc(S(=O)(=O)CCC(=O)NC3CCCc4ccccc43)ccc21 (centres undefined)	.	-2.3
COC(=O)C[C@H]1C2(C)CC34OC5(C)O[C@@]6([C@H](OC(C)=O)C(OC(C)=O)[C@]7(C)C(/C(=C(/O)C(C)C)C(=O)O[C@H]7c7ccoc7)[C@@]6(O5)[C@H](OC(C)=O)[C@@]3(O)C2OC(=O)C(C)C)[C@]14C (some centres undefined)	.	-0.47
COc1ccccc1N1CCN(Cc2cc(=O)n3nc(C4CCCCC4)sc3n2)CC1	.	0.09
C/C(=N\N(C)C)c1cc(Cl)cc(Cl)c1O	-1.1	.
Cc1cc(Nc2cccc(C)c2C)n2cnnc2n1	-2.8	-0.22
CCOC(=O)C(C(=O)Cc1ccccc1)c1ccccc1 (centres undefined)	-1.8	.
Cc1ccc2cc3c(NCc4ccc(F)cc4Cl)n[nH]c3nc2c1	-1.7	-0.45
Cc1nc(-c2ccc(S(=O)(=O)Nc3ccc(Br)c(C)c3)cc2)co1	.	-0.14
CN(C)CCN(Cc1ccco1)C(=O)c1noc2c1COc1ccccc1-2	-1.2	1.1
O=c1[nH]c2ccccc2n(-c2ccc(Cl)cc2)c1=O	0.99	.
NC(=O)c1sc(-c2ccsc2)cc1NC(=O)c1cccs1	-1.6	.
CCS(=O)(=O)N1CCCc2ccc(NS(=O)(=O)CCc3ccccc3)cc21	.	-0.94
Cc1oc(-c2cccc(Br)c2)nc1Cn1c(=O)cc(-c2ccccc2)c2c(C)nn(C)c21	.	0.77
NC(=O)N/N=C/c1coc2ccccc2c1=O	-1.9	.
CCC(C)C1N=C2c3ccccc3N=C(SCc3cc(=O)n4ccccc4n3)N2C1=O (centres undefined)	0.28	.
c1ccc(CCNc2ccc3nncn3n2)cc1	-1.1	.
Cn1c(=O)oc2cc(S(=O)(=O)N3CCCC(C(=O)N4CCCCC4)C3)ccc21 (centres undefined)	-1	.
O=C(Nc1cc(-c2nc3ncccc3o2)ccc1Cl)c1ccc(-c2ccccc2)cc1	1.1	.
CCSc1ncc(Cl)c(C(=O)Nc2c(C(=O)Nc3ccccc3)oc3ccccc23)n1	-1	1.2
CCS(=O)(=O)Nc1ccc2sc(NC(C)=O)nc2c1	.	1

# An excerpt of these results, as labelled records.
Molecule: CC(=O)N1CCc2cc(S(=O)(=O)CCC(=O)NC3CCCc4ccccc43)ccc21 (centres undefined)
  CDC25B-CDK2 inh: .; HIV TAR-Tat: -2.3
Molecule: COC(=O)C[C@H]1C2(C)CC34OC5(C)O[C@@]6([C@H](OC(C)=O)C(OC(C)=O)[C@]7(C)C(/C(=C(/O)C(C)C)C(=O)O[C@H]7c7ccoc7)[C@@]6(O5)[C@H](OC(C)=O)[C@@]3(O)C2OC(=O)C(C)C)[C@]14C (some centres undefined)
  CDC25B-CDK2 inh: .; HIV TAR-Tat: -0.47
Molecule: COc1ccccc1N1CCN(Cc2cc(=O)n3nc(C4CCCCC4)sc3n2)CC1
  CDC25B-CDK2 inh: .; HIV TAR-Tat: 0.09
Molecule: C/C(=N\N(C)C)c1cc(Cl)cc(Cl)c1O
  CDC25B-CDK2 inh: -1.1; HIV TAR-Tat: .

# Additional records
SMILES	CDC25B-CDK2 inh	HIV TAR-Tat
FC(F)(F)c1cc(-c2nccs2)nc2cc(-c3cccs3)nn12	-1.3	.
CCOC(=O)N1CCC(NC(=O)c2cn(C3CCCCC3)c(=O)c3c2c2ccccc2n3C)CC1	-3.5	0.91
CCN(CC)CCCNC(=O)Nc1cn(C)c(=O)c2ccccc12	.	-1.1
CCc1nn(CC(=O)N2CCN(C)CC2)c(=O)c2cc3occc3n12	-0.41	1.9
CCOc1c(C)nc(C)c(OCC)c1-c1cccc([N+](=O)[O-])c1	-2	.
O=C(CSc1nc2c(cnn2-c2ccccc2)c(=O)[nH]1)Nc1cccc(F)c1	.	0.7
COc1ccc(S(=O)(=O)c2c[nH]c3ccc(F)cc3c2=O)cc1OC	0.14	-1

# In a second layout: entries from further up
> FC(F)(F)c1cc(-c2nccs2)nc2cc(-c3cccs3)nn12
  CDC25B-CDK2 inh: -1.3; HIV TAR-Tat: .
> CCOC(=O)N1CCC(NC(=O)c2cn(C3CCCCC3)c(=O)c3c2c2ccccc2n3C)CC1
  CDC25B-CDK2 inh: -3.5; HIV TAR-Tat: 0.91
> CCN(CC)CCCNC(=O)Nc1cn(C)c(=O)c2ccccc12
  CDC25B-CDK2 inh: .; HIV TAR-Tat: -1.1
